High-throughput results from PubChem BioAssay.
VACV mCherry inh: inhibitors of vaccinia virus infection (mCherry reporter signal); Vaccinia virus mCherry reporter infection, fluorescence; about a quarter of the inactives have no number; Potency, µM (highest dose often 36.5 µM), inactives show at the top dose activity change, negative = inhibition, usual class: inhibitors; 0.63% of 310,000 active; AID 720579; active = well fitted inhibition curve with a large enough effect; inconclusive = small, poorly fitted or top-dose-only effect; inactive = no such curve, though single readings can be large or run the other way; tested in A549 cells; further: nearly all actives have a fitted effect of over 35% in size; inactives centre near -10
Vaccinia Venus: vaccinia inhibition (Venus reporter); Potency, µM (titrated, usually from 36.5 µM), for the others: top-dose activity change, negative = inhibition, most hits filed as inhibitors; Vaccinia virus Venus reporter expression, fluorescence; AID 720580; 0.46% of 330,000 active; active means well fitted inhibition curve with a large enough effect; inconclusive means small, poorly fitted or top-dose-only effect; inactive means no such curve, though single readings can be large or run the other way; tested in A549 cells; further: nearly all actives have a fitted effect of over 30% in size; inactives centre near -10
The depositor's hits bear a star; i = inactive; ? = inconclusive; . = no result given; [ ] = remark or other dose. On the % scale 0 is the no-effect control and ±100 the full control effect; potency means the concentration at half of the fitted maximal effect.

Order of values: VACV mCherry inh, Vaccinia Venus
1) CCOC(=O)N1CCN(S(=O)(=O)c2ccc(C)c([N+](=O)[O-])c2)CC1
 : -3%, 1%
2) NS(=O)(=O)c1ccc(CCNC(=O)c2cccc(S(=O)(=O)N3CCc4ccccc43)c2)cc1
 : -15%, ?
3) CCC1CN1P1(=O)OCC(C)([N+](=O)[O-])CO1 (stereo not given)
 : i, -19%
4) CC1=Nc2cc(C(=O)N3CCCCC3)ccc2Sc2ccc(C)cc21
 : -5%[7.34 µM], -12%[7.34 µM]
5) CCN(C(=O)CSc1ncc2c(n1)-c1cc(Cl)ccc1N(Cc1ccccc1)S2(=O)=O)c1cccc(C)c1
 : i, -4%
6) C/C=C(\CS(=O)(=O)c1ccccc1)S(=O)(=O)c1ccccc1
 : i, -5%
7) Cc1ccc(-c2nn(CCC#N)cc2C(=O)O)cc1C
 : -6%, -2%
8) CCC(CO)[n+]1c(C)cc(/C=C2\Sc3ccccc3N2Cc2ccccc2)cc1C (stereo not given)
 : i, -30%
9) Cc1ccc(NC(=O)CSc2ccc(-c3cccnc3)nn2)cc1
 : -7%, -26%
10) C[C@H](NC(N)=O)C(=O)Nc1ccc2c(c1)OCO2
 : -21%, 1%
11) O=C(C1CCCN(S(=O)(=O)c2cccc3cccnc23)C1)N1CCN(c2ccc(F)cc2)CC1 (stereo not given)
 : -12%, -10%
12) Cc1cccc(NC(=O)CSc2nc(-c3ccco3)nc3cc(=O)[nH]n23)c1
 : -7%, -12%
13) O=C(CSc1nnc(Nc2ccccc2)s1)Nc1cccnc1Cl
 : -24%, 0%
14) COc1ccc(Cl)cc1N1CC(C(=O)Nc2nccs2)CC1=O (stereo not given)
 : ., ?
15) c1ccc(-c2nc3nonc3nc2-c2ccccc2)cc1
 : -20%, -9%
16) Cc1ccc(N(CC(=O)NCc2ccccc2)C(=O)c2csnn2)c(C)c1
 : -16%, -6%
17) CCOc1ccc(/C=C/C(=O)C(C(N)=O)=C2SCCS2)cc1
 : 4.5µM*, -26%
18) O=C(c1cc2c(s1)-c1ccccc1S(=O)(=O)C2)N1CCCC1
 : -9%, -6%
19) c1ccc2c(c1)oc1c(NCCCN3CCOCC3)ncnc12
 : ., -3%
20) COc1cccc(CSc2nc(-c3ccccc3OC)nc3c2Cc2c(CO)cnc(C)c2O3)c1
 : ?, ?

Next results:
Order of values: VACV mCherry inh, Vaccinia Venus
21) COCCNC(=O)C1CCN(Cc2cccc(OCc3ccccc3)c2)CC1
 : -15%, -16%
22) O=C(/C=C/c1ccc2c(c1)OCO2)NCc1ccco1
 : i, -19%
23) COc1ccc(NC(=S)NNC(=O)CCn2cc([N+](=O)[O-])cn2)cc1
 : i, -12%
24) COC(=O)Cn1cnc(=O)c(C#N)c1/C=C/N(C)C
 : ., -15%
25) Cc1ccc(-n2ncc3c2CC(C)(C)CC3NC(=O)c2cc[n+]([O-])cc2)cc1 (stereo not given)
 : -1%, -5%
26) CCOc1ccc(NC(=S)Nc2ccccc2C2(C)CC2)cc1
 : -10%, -17%
27) CS(=O)(=O)NCCOc1ccc(S(=O)(=O)NCCOc2ccccc2)cc1
 : -1%, -6%
28) O=C(O)/C=C/C(=O)Nc1ccc(OC(F)F)cc1
 : i, -2%
29) CCOC(=O)c1c(NC(=S)N2CCN(C)CC2)sc2c1CCN(C(=O)OCC)C2
 : -17%, 5%
30) Cc1ccc(C)c(C(=O)OCC(=O)Nc2cccc(S(=O)(=O)NC3=NCCCCC3)c2)c1
 : ?, ?
31) O=C(Nc1ccc(C(=O)N2CCOCC2)cc1)c1cccs1
 : -12%, -14%
32) O=C(c1ccccc1F)N1CCN(C(=O)C2CC2)CC1
 : i, -10%
33) C#CCn1c(O)c(N=NC(=O)C(O)c2ccccc2)c2ccccc21 (stereo not given)
 : 13µM*, ?
34) O=[N+]([O-])c1ccc(N/N=C/c2ccc(OCc3cccc4ccccc34)cc2)nc1
 : 2%, -18%
35) C/C(Cn1nnc([N+](=O)[O-])n1)=N\NC(=O)c1ccncc1
 : ?, ?
36) CN(C)c1ccc(C2CCc3ccccc3N2C(=O)c2ccccc2)cc1 (stereo not given)
 : -8%, -10%
37) CCc1nc2c(OCc3c(C)noc3C)cccn2c1N(C=O)Cc1ccc(OC)cc1
 : -12%, -15%
38) O=C(O)COc1c(-c2ccco2)oc2ccccc2c1=O
 : -8%, -6%
39) CCOC(=O)c1c(C)[nH]c(CCC(=O)NCc2cc(Br)ccc2OC)c1C
 : -8%, -3%
40) CCOC(=O)c1ccc(-n2c(CCC(=O)O)ccc2-c2ccc(F)cc2)cc1
 : -4%, -13%

Next compounds.
Order of values: VACV mCherry inh, Vaccinia Venus
41) O=[N+]([O-])c1cc(Cl)ccc1-c1nc(-c2ccccc2)no1
 : -7%, -17%
42) O=C(O)CCc1ccc(-c2ccccc2)n1-c1cccc(O)c1
 : i, -4%
43) O=C(CN1CCCc2ccccc21)N/N=C/c1ccccc1
 : -5%, 1%
44) COc1cc2cc(CN(CCCN3CCOCC3)C(=O)Nc3ccc(F)cc3)c(=O)[nH]c2cc1OC
 : i, -17%
45) COc1cc(C(=O)Nc2ccc(-c3nc4cc(C)ccc4o3)c(O)c2)cc(OC)c1OC
 : -19%, -3%
46) COc1ccnc(Oc2ccc(C)cc2)c1C#N
 : -10%, -11%
47) COc1ccc(NC(=O)Cn2nc(C(F)(F)F)c3c2CCCC3)cc1OC
 : -15%, -3%
48) O=C(Nc1ccc(F)cc1)c1cncs1
 : i, -9%
49) CC(C)CC(=O)NS(=O)(=O)c1ccc(N)cc1
 : ., 25%
50) COc1cc(/C=N/NC(=O)CCN2CCN(Cc3ccccc3)CC2)cc(OC)c1OC
 : ?, ?
51) CCN1c2cccc3cccc(c23)S1(=O)=O
 : -13%, -19%
52) Cc1ccc2nsnc2c1NC(=O)c1ccc([N+](=O)[O-])cc1
 : -9%, 3%
53) CCn1c(=O)cc(OCC(=O)NCc2ccccc2Cl)c2ccccc21
 : 0%, -4%
54) Cc1ccc(N(C)C(=O)Oc2cccc3ccc(C)nc23)cc1
 : ., -20%
55) CC1CC(C)CN(CCCNC(=O)C2CCCN(c3ncnc4c3nc3n4CCCCC3)C2)C1 (stereo not given)
 : i, -14%
56) CC(=O)Cc1nsc(NC(=O)c2cc(-c3ccccc3Cl)oc2C)n1
 : i, -14%
57) COC(=O)CNC(=O)C1CCN(C(=O)OCc2ccccc2)CC1
 : ., 0%
58) CCOC(=O)N1CCc2c(sc(NCc3cc(OC)c(OC)cc3OC)c2C(=O)Nc2ccc(OCC)cc2)C1
 : 7%, -2%
59) COc1ccc(S(=O)(=O)N=N/C=C2\C=CC=CN2O)cc1OC
 : i, -22%
60) CCOCCOC(=O)C1=C(C)NC2=C(C(=O)CC(c3cccs3)C2)C1c1ccsc1 (stereo not given)
 : -8%, -11%

Excerpt, nos. 54–60
Order of values: VACV mCherry inh, Vaccinia Venus
54) Cc1ccc(N(C)C(=O)Oc2cccc3ccc(C)nc23)cc1
 : ., -20%
55) CC1CC(C)CN(CCCNC(=O)C2CCCN(c3ncnc4c3nc3n4CCCCC3)C2)C1 (stereo not given)
 : i, -14%
56) CC(=O)Cc1nsc(NC(=O)c2cc(-c3ccccc3Cl)oc2C)n1
 : i, -14%
57) COC(=O)CNC(=O)C1CCN(C(=O)OCc2ccccc2)CC1
 : ., 0%
58) CCOC(=O)N1CCc2c(sc(NCc3cc(OC)c(OC)cc3OC)c2C(=O)Nc2ccc(OCC)cc2)C1
 : 7%, -2%
59) COc1ccc(S(=O)(=O)N=N/C=C2\C=CC=CN2O)cc1OC
 : i, -22%
60) CCOCCOC(=O)C1=C(C)NC2=C(C(=O)CC(c3cccs3)C2)C1c1ccsc1 (stereo not given)
 : -8%, -11%

Further compounds follow:
Order of values: VACV mCherry inh, Vaccinia Venus
61) CCOC(=O)C1=CCN(S(=O)(=O)c2ccccc2C)C1c1cccc(Br)c1 (stereo not given)
 : 24%, -7%
62) Cc1[nH]c2ccccc2c1C(=O)C(C)OC(=O)c1ccc(Cl)nc1 (stereo not given)
 : -3%, -18%
63) COc1ccc(CC(=O)N2CCc3cc(OC)c(OC)cc3C2O)cc1OC (stereo not given)
 : i, -8%
64) CCOc1ccccc1CNC(=O)c1ccc2c(c1)sc1nc(-c3ccccc3)cn12
 : -12%, -6%
65) COc1ccc(Cn2c(C)c(C)c(C#N)c2NC(=O)Nc2cccc(Cl)c2)cc1
 : -17%, -13%
66) CSc1ccccc1-c1nnc(-c2ccc(C)cc2)o1
 : ., -33%
67) Cc1cc(C)c(C)c(S(=O)(=O)N2CCC(C(=O)Nc3ccc(S(=O)(=O)N4CCOCC4)cc3)CC2)c1C
 : ?, ?
68) CC1CN(c2ccccn2)C(C)CN1C(=S)Nc1ccccc1 (stereo not given)
 : -8%, -3%
69) CC(=O)c1cccc(NC(=O)C(C)N(C)CC(=O)Nc2ccc(Cl)cc2)c1 (stereo not given)
 : 5%, -16%
70) CN(C)C(=O)c1cn(-c2ccccc2)nc1-c1cccc([N+](=O)[O-])c1
 : -3%, -21%
71) CN([C@@H](C(=O)OC(C)(C)C)c1ccccc1)S(=O)(=O)c1cccc(S(=O)(=O)N(C)[C@@H](C(=O)OC(C)(C)C)c2ccccc2)c1
 : ?, -8%
72) CCN1CCCC1CNC(=O)Cn1nc(C)n2c(cc3cc(C)ccc32)c1=O (stereo not given)
 : i, -12%
73) CC1(C)NC(=O)N(CC(=O)OCC(=O)NC(=O)c2ccccc2)C1=O
 : -14%, -8%
74) O=C(CSc1ccccc1)Nc1ccncc1
 : -7%, -18%
75) C[C@@H](C(=O)NCC1CC1)[C@H]1C[C@]1(C)[C@H](NC(=O)OCc1ccccc1)c1ccccc1
 : i, -20%
76) CC(=O)OCCNC(=O)c1cc2ccccc2oc1=O
 : ., -18%
77) CCOC(=O)N1CCN(C(=O)c2ccc3c(=O)n(CCC4=CCCCC4)c(=S)[nH]c3c2)CC1
 : ., -14%
78) Cc1nc2c(s1)sc1ccccc12
 : ?, -9%
79) c1ccc(-c2csc(N3CCSCC3)n2)cc1
 : ?, -12%
80) O=C(NCc1ccccc1)C(=O)NCC(c1ccco1)S(=O)(=O)c1cccs1 (stereo not given)
 : -16%, -14%

The closing four records of the section before open the next one:
Order of values: VACV mCherry inh, Vaccinia Venus
77) CCOC(=O)N1CCN(C(=O)c2ccc3c(=O)n(CCC4=CCCCC4)c(=S)[nH]c3c2)CC1
 : ., -14%
78) Cc1nc2c(s1)sc1ccccc12
 : ?, -9%
79) c1ccc(-c2csc(N3CCSCC3)n2)cc1
 : ?, -12%
80) O=C(NCc1ccccc1)C(=O)NCC(c1ccco1)S(=O)(=O)c1cccs1 (stereo not given)
 : -16%, -14%
81) CN(C(=O)c1ccno1)c1nnc(-c2ccccn2)s1
 : -13%, -13%
82) Nc1ccc2c(c1)Oc1ccccc1C=C2
 : -27%, -16%
83) COc1ccc(-c2noc(C3CCCN(C(=O)c4ccccc4OC)C3)n2)cc1 (stereo not given)
 : i, -23%
84) Cc1ccc(C)c(NC(=S)Nc2ccc(S(=O)(=O)Nc3ncccn3)cc2)c1
 : -20%, -3%
85) O=C(CSc1nc2c([nH]c3ccccc32)c(=O)n1-c1ccc(F)cc1)N1CCCCCC1
 : -7%, -1%
86) COc1ccccc1NC(=O)Cn1c(SCC(=O)Nc2ccc(F)cc2)nc2ccccc21
 : i, 0%
87) COc1ccc(-c2cc(C(F)(F)F)n3nc(C(N)=O)cc3n2)cc1
 : -12%, -8%
88) CCOC(=O)CNC(=O)Cn1c(C)cc2ccccc2c1=O
 : -17%, -3%
89) Cc1nc(N2CCN(C(=O)c3ccco3)CC2)c2c3c(sc2n1)CCC3
 : ., ?
90) Cc1onc(-c2ccccc2)c1C(=O)Nc1cccc(OC(C)C)c1
 : ?, ?
91) Cc1cccc(N2CCN(C(=O)c3cc(C)oc3C)CC2C)c1 (stereo not given)
 : i, -22%
92) COc1ccc(C(=O)CSc2nc3nc(C)cc(C)n3n2)cc1OC
 : -10%, -4%

Profiles, looked up by structure. Values in the order: VACV mCherry inh | Vaccinia Venus
COc1ccc(-c2noc(C3CCCN(C(=O)c4ccccc4OC)C3)n2)cc1 (stereo not given) is entered as i | -23%
O=C(CSc1nc2c([nH]c3ccccc32)c(=O)n1-c1ccc(F)cc1)N1CCCCCC1 is entered as -7% | -1%
